Screening data from PubChem.
EPAC2 antag: EPAC2 (human) antagonism | Potency, µM (doses to about 114 µM), inactives show at the highest dose activity, negative = inhibition, most hits filed as inhibitors | EPAC2 GEF exchange of Rap1B-BODIPY-GDP, fluorescence | Q8WZA2 | 360,000 tested, 0.18% active | AID 720708; further: on the % scale 0 is the no-effect control and ±100 the full control effect; nearly all actives have a fitted effect of over 45% in size; many of its hits are not listed in these tables
EPAC1 antagonist: EPAC1 (human) antagonism. 360,000 tested, 0.14% active. EPAC1 GEF assay, Rap1b-BODIPY-GDP exchange fluorescence. Potency, µM (doses to about 115 µM), for inactives: at the top dose activity change, negative = inhibition, hits mostly inhibitors;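 further: plate controls were vehicle for no effect and positive control for full effect; nearly all actives have a fitted effect of over 50% in size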
Target sequence (O95398 whole entry, looked up): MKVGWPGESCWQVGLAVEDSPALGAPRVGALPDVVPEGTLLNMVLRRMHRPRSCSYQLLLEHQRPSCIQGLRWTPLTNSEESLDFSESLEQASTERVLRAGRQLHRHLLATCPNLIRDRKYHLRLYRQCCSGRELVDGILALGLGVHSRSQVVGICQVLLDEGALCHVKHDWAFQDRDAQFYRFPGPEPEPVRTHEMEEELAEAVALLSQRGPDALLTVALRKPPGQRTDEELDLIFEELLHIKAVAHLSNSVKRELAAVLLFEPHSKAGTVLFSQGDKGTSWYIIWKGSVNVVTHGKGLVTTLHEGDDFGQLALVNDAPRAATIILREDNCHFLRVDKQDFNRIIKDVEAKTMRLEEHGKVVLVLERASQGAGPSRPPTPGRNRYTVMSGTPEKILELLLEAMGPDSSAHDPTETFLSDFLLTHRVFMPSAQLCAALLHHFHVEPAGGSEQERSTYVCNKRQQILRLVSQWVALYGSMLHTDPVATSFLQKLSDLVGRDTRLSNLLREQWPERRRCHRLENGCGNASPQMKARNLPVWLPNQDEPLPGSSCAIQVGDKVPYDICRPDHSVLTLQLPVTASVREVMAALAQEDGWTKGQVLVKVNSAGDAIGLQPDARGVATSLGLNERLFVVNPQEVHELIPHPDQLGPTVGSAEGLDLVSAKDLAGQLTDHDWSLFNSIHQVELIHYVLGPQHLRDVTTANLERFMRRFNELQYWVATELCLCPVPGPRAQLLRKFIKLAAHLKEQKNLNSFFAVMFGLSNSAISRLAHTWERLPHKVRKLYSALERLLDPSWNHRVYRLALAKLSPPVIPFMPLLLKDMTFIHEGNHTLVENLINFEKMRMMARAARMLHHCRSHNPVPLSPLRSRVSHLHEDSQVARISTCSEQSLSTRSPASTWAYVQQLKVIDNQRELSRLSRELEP
FUS yeast rescue: suppressors of FUS proteinopathy in yeast; S. cerevisiae FUS-expressing, growth rescue, OD600, 24 h; Potency, µM (doses to about 76.6 µM), inactives show at the highest dose growth rescue (activation), most hits filed as activators; 390,000 tested, 0.24% active; AID 1347120;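 further: plate controls were DMSO vehicle for no effect and reference control for full effect; nearly all actives have a fitted effect of over 55% in size; some results filed as inactive show a strong effect at the top dose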
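Cultures pregrown in 2.5% raffinose medium are shifted to minimal medium containing 2% galactose to express toxic FUS. Compounds are tested at several concentrations. After 24hr at 30C, growth is quantified at 600 nm absorbance.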
EPAC2 agonist: agonists of human EPAC2 (RAPGEF4). EPAC2 activation, biochemical qHTS; response scale: 100% = 6.5 mM cAMP response. Potency, µM (highest dose often 154 µM), for inactives: top-dose activation, hits mostly activators. 360,000 tested, 0.079% active; further: nearly all actives have a fitted effect of over 50% in size
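Compounds were added across a concentration range to EPAC2 (100 nM), RAP1B-BODIPY-GDP (250 nM) and GDP (50 uM). After 5 min at room temperature, fluorescence was recorded at 5-min intervals for 30 min.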
EPAC1 ag: agonists of human EPAC1; O95398; EPAC1 agonist qHTS, biochemical assay; response scale: 100% = response to 6.5 mM cAMP; Potency, µM (doses to about 154 µM), inactives show at the highest dose activation, most hits filed as activators; 360,000 tested, 0.073% active; further: nearly all actives have a fitted effect of over 60% in size
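Multi-concentration qHTS readout: loss of Rap1B-bound BODIPY-GDP fluorescence driven by 100 nM EPAC1 with excess GDP (50 uM), monitored kinetically at room temperature; agonist response expressed relative to 6.5 mM cAMP.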
aSyn yeast inh: rescues yeast growth from alpha-synuclein toxicity | Potency, µM (doses to about 46.1 µM), without a hit: top-dose growth rescue (activation), actives largely listed as activators | Yeast expressing alpha-synuclein, growth rescue, BacTiter-Glo, 24 h | 370,000 tested, 0.14% active; further: % of control where 0% means no effect; nearly all actives have a fitted effect of over 65% in size
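Readout is rescue of growth in alpha-synuclein-expressing yeast, so inhibitors of toxicity appear as activators. Growth after 24 hr at 30 deg C in galactose medium is quantified by luminescence.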
TDP43 rescue: TDP-43 toxicity inhibition in yeast. TDP-43 expressing yeast growth rescue, BacTiter-Glo, 24 h. Potency, µM (top dose mostly 46.1 µM), for the others: at the highest dose growth rescue (activation), actives largely listed as activators. 410,000 tested, 1.8% active. AID 652104; further: % of control where 0% means no effect; nearly all actives have a fitted effect of over 50% in size
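Yeast cells expressing TDP-43 under galactose induction are exposed to compounds for 24 hr at 30 deg C. BacTiter-Glo luminescence measures growth, so protective compounds score as activators.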
* marks the source's active call; other numbers are inactive results; ? = inconclusive; nt = not tested or not shown; & = joins results of further samples; [ ] = dose if it differs, or a comment. The call rests on the fitted dose curve; in most records, active means well fitted curve in the direction sought with a large enough effect; inconclusive means small, poorly fitted or top-dose-only effect, or another doubt; inactive means no such curve, though single readings can be large; an effect the other way counts as inactive or inconclusive. Potency means the concentration at half of the fitted maximal effect.

mol	aSyn yeast inh	TDP43 rescue	EPAC2 antag	EPAC1 ag	FUS yeast rescue	EPAC2 agonist	EPAC1 antagonist
CN1C(=O)c2cccc(NCCCN3C(=O)c4ccccc4C3=O)c2C1=O	-2.5%	-19.2%	12.1%	3.5%	?	29.7%	9.7%
Cc1nc(-n2nc(C)c(CCC(C)C)c2C)sc1C(=O)Nc1ccc(Cl)cc1	nt	0.0%	nt	nt	12.0%	nt	nt
O=S(=O)(Nc1ccc2c(c1)OCO2)c1ccccc1	2.3%	-11.1%	-0.8%[57.1 µM]	13.2%	11.1%	9.0%	-1.9%
CCOc1cccc(CNCCCSc2nnnn2C)c1	nt	6.7%[9.22 µM]	nt	nt	-23.8%	nt	nt
COc1ccc(/C=N/NC(=O)c2ccc3c(c2)OCO3)c(C(=O)O)c1OC	-7.2%	-20.8%	2.9%	1.6%	1.0%	9.7%	-5.8%
CCCCN(C)CCNC(=O)c1cc(-c2ccc(Cl)s2)nc2ccccc12	nt	-2.1%	nt	nt	-20.2%	nt	nt
CC(C)NC[C@@H](O)c1ccc(O)c(O)c1	-10.8%&-7.8%	2.6%	-1.5%	-24.3%	-37.2%	3.6%	1.1%
COC(=O)C1=NN(c2cccc3ccccc23)C2C(=O)N(c3ccccc3OC)C(=O)C12 (stereo not drawn)	-2.3%	7.5%	-2.4%	7.0%	?	12.3%	-24.2%
CSc1nc(-c2ccccc2)nc2c1COC(C)(C)C2	-13.3%	11.0%	-2.3%	10.6%	-3.2%	7.6%	-12.9%
C/C(CC(=O)Nc1c(C)cc(C)cc1C)=N\NC(=O)OC(C)(C)C	-5.9%	-8.9%	24.2%	-5.7%	4.4%	3.4%	0.0%
CC(=O)C1=C(O)C(=O)N(CCC(=O)O)C1c1cccc(F)c1 (stereo not drawn)	0.3%	-7.2%	-4.9%	14.1%	-2.4%	9.5%	-11.3%
Cc1ccc(-c2nc(CS(=O)CC(=O)NCCc3ccc(Cl)cc3)c(C)o2)cc1 (stereo not drawn)	nt	28.2%	nt	nt	3.9%	nt	nt
CC1(C)CC(=O)C(=C2SCCCS2)C(=O)C1	-1.3%	0.0%	-2.7%	1.4%	-2.5%	-1.7%	9.4%
O=S(=O)(NCc1ccc2c(c1)OCO2)c1ccc(Cl)s1	9.0%	11.2µM*	-6.2%	-23.1%	3.7%	8.1%	-13.9%
CCCCOc1ccc2c(c1)/C(=C(\C(Cl)=C(Cl)Cl)[N+](=O)[O-])N2	0.2%	-8.7%	6.2%	6.3%	25.4%	-8.2%	-0.4%
CN(C)C(=O)c1ccc2c3c(cccc13)CC2	-2.5%	14.6%	-4.4%	14.5%	8.3%	2.8%	-3.1%
CCn1ncc(Br)c1C(=O)Nc1c(C)nn(Cc2c(F)c(F)c(F)c(F)c2F)c1C	-3.1%	-14.4%	11.2%	12.4%	18.9%	-1.0%	-5.8%
COC(=O)CCC(=O)N(CCN(Cc1ccccc1)C(=O)CCC(=O)OC)Cc1ccccc1	-1.2%	-15.8%	9.8%	0.5%	14.9%	2.8%	4.6%
Cc1cccc(-n2c(SCC(N)=O)nnc2-c2ccco2)c1	-1.0%	2.8%	2.6%	2.2%	-6.7%	12.3%	-31.0%
CCn1cc(Cl)c(C(=O)Nc2c(C)nn(Cc3c(F)c(F)c(F)c(F)c3F)c2C)n1	-6.1%	1.6%	1.0%	-12.4%	1.8%	-4.4%	-17.5%
C=CCn1c(CCNC(=O)c2cccs2)nnc1SCC(=O)Nc1cccc(F)c1	4.8%	-17.6%	4.6%	1.4%	12.8%	1.5%	12.4%
Cc1ccc(N2C(=O)c3sc4nnc(C)c(=O)n4c3C2=O)cc1	4.3%	-17.4%	7.4%	2.0%	28.3%	6.4%	11.8%
COc1ccc(C2C(C(=O)Nc3cccnc3)=C(C)Nc3nc(-c4ccccc4)nn32)cc1OC (stereo not drawn)	nt	8.1%	nt	nt	18.9%	nt	nt
COc1ccc(CNc2cc(NCCCO)c([N+](=O)[O-])c3nonc23)cc1	-1.8%	-17.3%	4.1%	-7.0%	5.7%	2.0%	-1.7%
CC1CCCCC1NC(=O)COc1ncnc2sccc12 (stereo not drawn)	-7.0%	3.9%	3.0%	3.8%	-18.8%	5.4%	4.8%
CCc1ccc(N2C(=O)c3sc4nnc(C)c(=O)n4c3C2=O)cc1	nt	-8.3%	7.3%	-16.2%	-21.5%	4.4%	-2.5%
Oc1ccccc1-c1nc(/C=C/c2ccccc2Cl)no1	nt	-1.9%	nt	nt	1.6%	nt	nt
CCC(=O)N1C(=O)CCN(C(C)=O)c2ccccc21	-20.0%	-9.3%	-8.4%[57.1 µM]	-1.6%	-27.2%	-16.5%	14.9%
Nc1ccn([C@H]2CS[C@@H](CO)O2)c(=O)n1	-7.8%	7.0%	-15.6%	7.0%	-30.4%	6.8%	-4.5%
N#Cc1ccc(-c2cccnc2)nc1SCc1ccc(Cl)c(Cl)c1	0.7%	17.6%	-16.9%	0.7%	-18.2%	1.5%	-27.0%
CCc1cc(=O)oc2cc(C)cc(OCC(=O)NC(Cc3ccc(Cl)cc3)C(=O)O)c12 (stereo not drawn)	10.1%	-20.8%	-12.4%	-19.4%	7.8%	6.3%	2.0%
COc1ccc(C(C#N)Nc2ccccc2OC)cc1 (stereo not drawn)	-2.9%	17.0%	1.6%	-6.0%	1.6%	5.1%	-1.2%
CCCn1c(CN2CCN(C(=O)OCC)CC2)nc2cc(NC(=O)CC)ccc21	3.7%	9.6%	7.5%	-1.8%	9.5%	4.0%	3.1%
Cc1ccccc1-n1c(C)nnc1SCC(=O)N1CC(=O)Nc2ccccc21	-1.4%	-13.2%	3.0%	7.6%	-10.6%	2.9%	-5.1%
CCCCn1c(=O)c2oc3ccccc3c2n(Cc2ccc(C)cc2)c1=O	nt	-30.8%[inhibitor]	nt	nt	-17.5%	nt	nt
COc1ccc(CCNC(=O)CCNC(=O)c2ccco2)cc1	-16.6%	-24.5%	27.7%	-13.0%	35.5%	11.8%	13.7%
O=C(CN1CCOCC1)Nc1ncc(Br)cc1Br	-0.6%	18.2%	-4.2%	0.4%	-24.3%	-12.7%	9.2%
O=C(Nc1ccc2c(c1)OCO2)c1cc(-c2cccc(Cl)c2)on1	nt	-7.6%	nt	nt	-6.8%	nt	nt
CCOC(=O)N1CCN(Cc2nc3cc(NC(=O)CC)ccc3n2CC)CC1	6.7%	15.2%	4.8%	-10.5%	-29.4%	-5.7%	6.0%
CCN(CC)C(=O)Cn1c(=O)n(CCCCCC(=O)NCc2ccccc2Cl)c(=O)c2sccc21	nt	8.2%	nt	nt	-13.2%	nt	nt
Cc1cc2c(cc1S(=O)(=O)N(CCN(C)C)Cc1ccco1)OCC(=O)N2	nt	15.6%	nt	nt	3.0%	nt	nt
CC(=O)NC1(c2ccccc2)CCN(c2nc(C)cc(C)n2)CC1	-0.3%	5.7%	4.3%	4.6%	-2.5%	-4.3%	-2.3%
COc1cc(C)c(S(=O)(=O)NCc2ccc3c(c2)OCO3)cc1C	?	15.8µM*	-19.2%	-16.2%	11.7%	16.8%	10.0%
COc1ccc(-c2nc(CSCC(=O)NCCC3=CCCCC3)c(C)o2)cc1OC	6.2%	25.8%	-3.7%	6.5%	?	1.4%	1.4%
COC(=O)CCN(C(=O)C12CC3CC(CC(C3)C1)C2)c1ccccn1	2.1%	10.3%	7.3%[57.1 µM]	3.3%	-0.3%	-10.0%	-12.8%
CS(=O)(=O)N1CC(C(=O)NC2CC2)Oc2ccc(Cl)cc21 (stereo not drawn)	-2.9%	-18.9%	10.1%	1.6%	14.5%	-9.3%	5.7%
CC(C)(C)NC(=O)c1ccc2c3c(cccc13)CC2	1.2%	-3.8%	9.6%	-3.8%	11.4%	-10.5%	0.5%
COc1ccc(-c2cc(C(=O)Nc3ccc4c(c3)OCO4)no2)cc1	-3.2%	-4.9%&10.1%	2.4%	-1.3%	8.9%&-9.8%	6.3%	22.3%
CN(CC1CCCN(CCc2ccc(F)cc2)C1)C(=O)CCC(N)=O (stereo not drawn)	10.0%	-13.0%	14.6%	2.2%	-20.1%	18.2%	17.8%
Cc1ccc(Cn2c(SCC(=O)N3CC(=O)Nc4ccccc43)nc3ccccc3c2=O)cc1	-1.9%	-13.1%	-6.2%	4.6%	nt	10.2%	-7.7%

New compounds follow
mol	aSyn yeast inh	TDP43 rescue	EPAC2 antag	EPAC1 ag	FUS yeast rescue	EPAC2 agonist	EPAC1 antagonist
CCOC(=O)c1cc2ccccc2nc1C	-3.9%	-6.0%	24.8%	7.1%	13.0%	5.3%	12.5%
O=S1(=O)NC(=NCC(c2ccco2)N2CCCCC2)c2ccccc21 (stereo not drawn)	2.2%	0.9%	7.2%	2.8%	7.6%	8.3%	3.8%
Cc1ccc(NC(=O)C2CCN(c3nnc(C)c4c(C)n(-c5ccccc5)nc34)CC2)c(Cl)c1	nt	2.2%	nt	nt	38.3%	nt	nt
O=C(O)C(C=C(Cl)Cl)N1CCOCC1 (stereo not drawn)	-2.8%	-24.5%	-2.9%	1.9%	1.1%	9.2%	33.2%[activator]
COc1ccc(N(CC(=O)NC2CC3CCC2C3)S(=O)(=O)c2ccccc2)cc1Cl (stereo not drawn)	-1.7%	-6.1%	-4.5%	13.0%	nt	13.1%	-12.1%
Cn1c(=O)c(C(=O)CSc2nncs2)c(N)n(Cc2ccccc2)c1=O	-1.3%	-20.2%	6.2%	3.8%	10.1%	4.5%	-0.5%
CCOC(=O)N1CCN(Cc2nc3cc(NC(=O)c4ccccc4OC)ccc3n2C(C)C)CC1	nt	1.4%	nt	nt	39.6%	nt	nt
Fc1cccc(F)c1CN1CCN(c2ncccn2)CC1	-5.8%	-12.5%	1.1%	6.0%	9.6%	-1.8%	-8.0%
O=[N+]([O-])c1cc(CN2CCN(c3cccc(C(F)(F)F)c3)CC2)c2cccnc2c1O	-20.2%	-88.4%[inhibitor]	-5.9%	-30.4%[inhibitor]	46.1%	-16.7%	?
Clc1ccc(CCNc2nc3ccccc3c3nc(-c4ccccc4)nn23)cc1	nt	16.3%	nt	nt	-0.3%	nt	nt
O=C(CSc1ccc2nnc(CCNC(=O)c3ccccc3)n2n1)Nc1ccccc1F	-0.8%	13.9%	-0.5%	-1.8%	7.2%	8.1%	5.1%
COc1ccc(Cl)cc1NC(=O)C(C)OC(=O)Cn1cc(C(F)(F)F)ccc1=O (stereo not drawn)	2.8%	19.9%	-2.8%	6.6%	-7.0%	0.5%	2.0%

Some of the compounds tested. The share of hits here may be higher or lower than overall.
